Assay outcomes deposited in PubChem by several laboratories.
HSV augment = HSV replication enhancement; maximum fold increase; AID 1956; HSV replication augmentation in cells, fold increase; 220,000 compounds, 0.005% hits;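 active = peak rise of 1.5-fold or more in the series; tested in PC3 cells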;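 also: first round at 10 µM; read as green reporter fluorescence; hits show the peak of a series up to 25 µM; 1 = signal of infected wells without compound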
GALR2 ag = activates the human galanin receptor 2. O43603. GALR2-expressing cells, agonist activation read-out. activation, %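 (tested at 5 µM)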. 140,000 compounds, 0.48% hits. AID 803;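 active = above mean plus 3 SD of all compounds, about 5% in these data, not always enough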;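 also: 0% = vehicle buffer wells and 100% = reference agonist at full effect; tested in CHO reporter cells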
Target sequence (O43603 whole entry, looked up): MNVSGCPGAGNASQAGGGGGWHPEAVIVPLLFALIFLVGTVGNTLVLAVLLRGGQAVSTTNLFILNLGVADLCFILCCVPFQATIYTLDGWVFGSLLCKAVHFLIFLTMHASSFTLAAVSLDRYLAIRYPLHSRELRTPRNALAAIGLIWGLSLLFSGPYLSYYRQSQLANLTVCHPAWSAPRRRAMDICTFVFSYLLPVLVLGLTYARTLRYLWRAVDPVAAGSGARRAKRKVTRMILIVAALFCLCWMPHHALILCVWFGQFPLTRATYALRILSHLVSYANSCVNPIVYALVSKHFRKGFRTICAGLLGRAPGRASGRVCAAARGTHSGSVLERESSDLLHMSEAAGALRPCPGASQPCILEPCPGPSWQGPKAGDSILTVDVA
PKD1 inh = blocks activity of human protein kinase D1; Q15139; PKD1 kinase fluorescence polarization assay; inhibition, %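 (about 10 µM by stock and volumes)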; 200,000 compounds, 0.056% hits; AID 797;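 active = inhibition of 50% or more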;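 also: controls were vehicle for no effect and a reference inhibitor for full effect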
Insulin prom inh = TRM-6 insulin promoter activity inhibition; TRM-6 cells (human fetal islet line), insulin promoter-eGFP reporter, imaging; reporter expression induced with tamoxifen; AID 1273; inhibition, % at 2 µM; 130,000 compounds, 0.9% hits;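 active = inhibition above the mean plus 3 SD, with well images judged a real hit on visual review, cut at about 60% in these data, passing the limit was not always enough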
RGS16-Gao = regulators of human RGS16-Galphao interaction; 220,000 compounds, 0.38% hits; bead-based flow cytometry RGS16-Galphao binding, fluorescence; actives lie on both sides; binding response (% of control), % at 10 µM; AID 1441; O15492+P09471;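 active = below 25% or above 175%, edge rows of some plates excepted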;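 also: Galphao activated by GDP with aluminum fluoride before binding; 100% = wells without compound and 0% = beads without RGS; some results beyond the cut were filed as inactive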
Target sequence (O15492 whole entry, looked up): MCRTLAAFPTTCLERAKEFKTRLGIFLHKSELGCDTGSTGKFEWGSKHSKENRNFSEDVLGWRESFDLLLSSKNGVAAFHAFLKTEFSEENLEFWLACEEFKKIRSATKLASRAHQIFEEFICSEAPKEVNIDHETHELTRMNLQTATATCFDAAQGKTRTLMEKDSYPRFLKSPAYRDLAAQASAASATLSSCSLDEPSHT
Target sequence (P09471 whole entry, looked up): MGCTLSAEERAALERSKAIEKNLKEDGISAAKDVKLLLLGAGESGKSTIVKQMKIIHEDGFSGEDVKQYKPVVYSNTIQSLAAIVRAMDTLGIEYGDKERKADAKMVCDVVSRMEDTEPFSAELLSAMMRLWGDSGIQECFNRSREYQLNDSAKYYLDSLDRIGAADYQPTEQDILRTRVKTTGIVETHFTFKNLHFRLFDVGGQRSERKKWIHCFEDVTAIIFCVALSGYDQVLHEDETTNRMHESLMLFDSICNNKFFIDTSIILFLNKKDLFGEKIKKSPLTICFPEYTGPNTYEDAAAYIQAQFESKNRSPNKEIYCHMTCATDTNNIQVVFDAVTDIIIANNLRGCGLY
Insulin prom inh cell count = recorded beside Insulin prom inh, whose call it bears; normalized cell count, %; measured here: cell count, toxicity; reference of the scale not given here;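 cells exposed to compound for 48 h; stained nuclei by imaging scaled within each plate; lower means fewer cells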
HSV augment primary fold = also measured in HSV augment; calls as there; fold increase; compound at 10 µM; measured here: primary screen fold increase 10 uM; tested in PC3 cells;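 GFP signal in the first replicate; 1 = infected wells without compound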
Starred values were filed as active, the others as inactive; i = inactive; . = no result given.

Values run as follows: HSV augment, HSV augment primary fold, GALR2 ag, PKD1 inh, Insulin prom inh, Insulin prom inh cell count, RGS16-Gao
1) O=C(c1ccco1)N1CCN(CCCCOc2cccc3ccccc23)CC1
  i, 0.93, -1.8, -13, -50, 74, 113
2) CC1CCN(C(=O)C2Cc3ccccc3CN2S(=O)(=O)c2ccc(F)cc2)CC1 (configuration not stated)
  i, 1, -0.3, 3, ., ., 104
3) COc1c(F)c(F)c(C(=O)O)c(Nc2ccc(C)cc2C)c1F
  i, 0.9, ., -2, -25, 83, 104
4) CCCCNS(=O)(=O)c1ccc2nc(-c3cccnc3)cc(C(=O)NC(C)C)c2c1
  ., ., -0.7, -9, 25, 95, 106
5) CCCc1nc(NC(=O)c2ccccc2)nc(NC(=O)c2ccccc2)n1
  i, 0.93, ., ., ., ., 115
6) CCCCNCCCCOc1ccccc1
  i, 0.89, -1.7, -6, 16, 113, 107
7) Cc1ccc(-n2nc(C(=O)O)c(O)cc2=O)cc1
  i, 0.85, ., 7, 24, 93, 100
8) COc1ccc(C2NC3=C(CCC3)C3(C#N)C(OC)(OC)N=C(N)C23C#N)cc1 (configuration not stated)
  i, 1, -3.2, 0, 61, 69, 95
9) O=C(CCCN1C(=O)c2cccc3cccc(c23)C1=O)NCc1ccco1
  i, 0.81, ., -1, ., ., 58
10) COC(=O)c1cnc2c(c(C)nn2C)c1OC
  i, 0.9, ., ., ., ., 102
11) CSc1nnc(C)c(=O)n1COC(=O)c1ccc(S(=O)(=O)N(C)C)cc1
  i, 0.99, -0.6, 3, 31, 188, 110
12) Cc1cc(C)nc(NS(=O)(=O)c2ccc(NC(=O)c3ccc(S(=O)(=O)N4CCOCC4)cc3)cc2)n1
  i, 0.98, -1.3, 17, ., ., 103
13) C=CCn1c(C)cc(C(=O)COC(=O)c2ccc3c(c2)NC(=O)CS3)c1C
  i, 0.94, -2.6, -8, -4, 127, 83
14) O=[N+]([O-])c1cc(Cl)c(O)c2ncccc12
  i, 1.1, ., 1, ., ., 92
15) COc1cccc(/C=N/c2sc(Cc3ccccc3)c(C)c2C(N)=O)c1O
  i, 0.93, 0.3, 7, 22, 83, 105

Additional compounds:
Values run as follows: HSV augment, HSV augment primary fold, GALR2 ag, PKD1 inh, Insulin prom inh, Insulin prom inh cell count, RGS16-Gao
16) CCc1ccccc1S(=O)(=O)Cc1ccc(C(=O)NCC2CCCO2)o1 (configuration not stated)
  i, 0.94, -0.3, -11, ., ., 95
17) CC(=O)Nc1cc2c(cc1NC(=O)c1cnccn1)OCCO2
  i, 0.98, -0.2, -5, 8, 156, 102
18) COc1ccc(NS(=O)(=O)c2ccc(S(=O)(=O)N3CCCC3)cc2)cc1
  i, 0.89, 15*, -4, -31, 61, 104
19) Cn1cccc1/C=N/NC(=O)c1sc2ccccc2c1Cl
  ., ., -1.7, -1, ., ., 97
20) Cc1ccc(C(O)CN2C3=NCCCN3c3ccccc32)cc1 (configuration not stated)
  i, 0.71, -0.3, -3, 62, 137, 59
21) COCCOC(=O)c1c(C)n(C)c2ccc(OC(=O)N3CCOCC3)cc12
  i, 0.91, 1.6, -3, ., ., 93
22) Cc1nc(SCC(=O)Nc2nc3ccccc3s2)c(C#N)c(C)c1C
  i, 0.87, -0.8, 1, 15, 117, 99
23) Cc1ccc2cc(COC(=O)c3ccncc3)c(=O)[nH]c2c1
  i, 0.99, -3.2, 10, ., ., 104
24) O=C(CSc1nnc(-c2ccco2)o1)c1ccccc1
  i, 1.1, -1.7, 11, ., ., 113
25) O=C(Nc1ccc(-c2ccccc2)cc1)c1ccco1
  i, 0.95, ., -2, 33, 87, 106
26) COC(=O)CCC(=O)Nc1nnc(C(F)(F)F)s1
  i, 0.95, 144*, -1, 0, 74, 105
27) COC(=O)C1=C(C)N(Cc2cccnc2)C(=O)/C1=C\c1sccc1C
  i, 1.1, ., 1, ., ., 99
28) CC1(C)Cc2ccccc2C(=NCCCCCC(=O)O)N1
  i, 0.99, -0.3, -7, -162, 67, 81
29) COc1ccc(C(=O)/C=C\N2CCOCC2)cc1
  i, 0.98, -1.6, -7, -35, 110, 102
30) Cc1c(Br)c([N+](=O)[O-])nn1CC(=O)NCc1ccco1
  i, 0.93, -0.3, 7, 13, 82, 95

Carrying on.
Values run as follows: HSV augment, HSV augment primary fold, GALR2 ag, PKD1 inh, Insulin prom inh, Insulin prom inh cell count, RGS16-Gao
31) Cc1nc2cc(NCc3cc([N+](=O)[O-])ccc3O)ccc2n1Cc1ccccc1
  i, 1, ., -6, 64, 80, 134
32) Cn1nc(C(=O)OCc2ccc(Br)cc2F)c2ccccc2c1=O
  i, 0.94, ., 1, -15, 116, 104
33) c1ccc(Cc2cc(-c3ccccc3)on2)cc1
  i, 0.95, -2.1, -7, -30, 108, 101
34) C/C(=N\NC(=O)CNc1cccc2ccccc12)c1ccc(Br)s1
  i, 0.83, -1.4, -3, ., ., 83
35) O=C(NCCCCc1ccccc1)C1CC(c2ccc([N+](=O)[O-])cc2)=NO1 (configuration not stated)
  i, 1, 0.9, -7, -27, 108, 101
36) Cc1ccc(OCC(=O)Nc2ccc3c4c(cccc24)CC3)c(C)c1
  i, 0.83, 0.6, 0, 15, 116, 107
37) Cc1ccnc2ccc(P(=O)(c3ccccc3)c3ccccc3)cc12
  i, 0.96, ., -1, ., ., 89
38) O=C(NCCCN1CCOCC1)c1ccc(CS(=O)(=O)c2c(Cl)cccc2Cl)o1
  i, 0.9, -0.5, -6, ., ., 106
39) Cc1cccc2nc(-c3cccc(NC(=O)c4ccc(Cl)cc4)c3)cn12
  ., ., 0.5, -1, -12, 123, 74
40) CC(C)N1CCCC(CNC(=O)CCc2nnc(CCCCc3ccccc3)o2)C1 (configuration not stated)
  i, 0.98, ., 1, ., ., 107
41) CC(C)CCNC(=O)Cn1c(=O)oc2cc(S(=O)(=O)N3CCc4ccccc43)ccc21
  i, 0.96, -1.9, -6, ., ., 105
42) CCOC(=O)c1c(NC(=O)CSc2nnc3c(n2)[nH]c2ccc(F)cc23)sc(C(C)=O)c1C
  i, 0.81, -0.1, -4, -8, 85, 107
43) Cc1cc(C)n(-c2nc(N(C)C)nc(N(C)C)n2)n1
  i, 0.94, -1.7, -7, -81, 89, 103
44) CC(C)(C)OC(=O)N/N=C/c1cccc([N+](=O)[O-])c1
  i, 0.73, ., 8, 0, 90, 96
45) Cn1c(CN2CCOCC2)nc2cc(NC(=O)COc3ccccc3)ccc21
  i, 1.1, ., 0, -20, 83, 113

Structures listed so far that have a Cl atom:
Values run as follows: HSV augment, HSV augment primary fold, GALR2 ag, PKD1 inh, Insulin prom inh, Insulin prom inh cell count, RGS16-Gao
14) O=[N+]([O-])c1cc(Cl)c(O)c2ncccc12
  i, 1.1, ., 1, ., ., 92
19) Cn1cccc1/C=N/NC(=O)c1sc2ccccc2c1Cl
  ., ., -1.7, -1, ., ., 97
38) O=C(NCCCN1CCOCC1)c1ccc(CS(=O)(=O)c2c(Cl)cccc2Cl)o1
  i, 0.9, -0.5, -6, ., ., 106
39) Cc1cccc2nc(-c3cccc(NC(=O)c4ccc(Cl)cc4)c3)cn12
  ., ., 0.5, -1, -12, 123, 74

Continued.
Values run as follows: HSV augment, HSV augment primary fold, GALR2 ag, PKD1 inh, Insulin prom inh, Insulin prom inh cell count, RGS16-Gao
46) CC(=O)n1cc([C@@H]2C=C(C(=O)N3CCOCC3)O[C@H](OCCCCO)C2)c2ccccc21
  i, 0.95, ., -3, ., ., 99
47) Clc1ccccc1CN1CCN(CCCc2ccccc2)CC1
  i, 0.95, ., -6, 8, 122, 157
48) O=C(NCc1ccc(Cl)c(Cl)c1)c1cccnc1
  i, 0.92, -0.7, 1, -19, 86, 101
49) CC(=O)c1c(C)[nH]c2ccccc2c1=O
  i, 0.8, -2.7, -10, 65, 77, 93
50) CSc1ccccc1NC(=O)COc1ccc(Cl)cc1C
  i, 0.97, 0.1, -12, 3, 122, 100
51) Cc1ccc(NC(=O)CN2C(=O)NC(Cc3c[nH]c4ccccc34)C2=O)cc1S(=O)(=O)N1CCCCC1 (configuration not stated)
  i, 0.82, -1.3, 4, 38, 121, 105
52) COc1cc2[nH]c(=S)n(Cc3ccc(C)cc3)c(=O)c2cc1OC
  i, 0.94, ., -13, 61, 98, 101
53) Cc1ccc2nc(CSc3nnc(-c4ccco4)n3-c3ccccc3)cc(=O)n2c1
  i, 1, -1.3, -7, 8, 93, .
54) O=C(O)CCC(=O)Nc1ccc(F)cc1
  i, 1, -3.6, -10, 46, 77, 109
55) CCOC(=O)N1CCN(C(=O)C2CCN(S(=O)(=O)c3cc(C)ccc3OC)CC2)CC1
  i, 0.95, ., 0, -44, 47, 102
56) COc1ccc(-c2nnc(SCc3nc4ccccc4s3)n2C(C)C)cc1
  i, 1, -2.6, -1, -11, 104, 99
57) CCN(CC)CCCNc1nc(C)cc(COC)c1C#N
  i, 0.92, ., -3, ., ., 95
58) N#Cc1ccccc1OCC(=O)NC(=O)NCc1ccccc1
  i, 0.99, ., 2, 17, 49, 100
59) O=C(CN1CCN(Cc2ccccc2)CC1)N1CCCCCC1
  i, 1, ., -5, 24, 101, 105
60) O=C(CN(C(=O)c1ccco1)c1cccc(F)c1)NCc1ccc(F)cc1
  i, 0.99, -1.4, -4, ., ., 65

Next section.
Values run as follows: HSV augment, HSV augment primary fold, GALR2 ag, PKD1 inh, Insulin prom inh, Insulin prom inh cell count, RGS16-Gao
61) S=c1nccc(-c2ccc3c(c2)CCO3)[nH]1
  i, 1.1, ., ., ., ., 99
62) COc1ccc(C2=CC3=C(Br)C(=O)C(C)(O)C(=O)C3=CO2)cc1 (configuration not stated)
  i, 0.93, ., ., ., ., 98
63) O=C(CCl)Nc1cc2[nH]c(=O)[nH]c2cc1Br
  i, 0.94, ., -2, ., ., 97
64) COc1cccc(CC(NC(C)=O)C(=O)NC2CCN(c3c4c(nc5ncnn35)CCC4)CC2)c1 (configuration not stated)
  ., ., -1.2, -7, -25, 122, .
65) O=C(Nc1nc2ccccc2n1Cc1ccc(Cl)cc1)c1ccco1
  i, 0.89, 0.7, -15, -158, 5, 104
66) Cc1ccc(NC(=O)c2ccco2)cc1C
  i, 0.91, -1.9, 1, -10, 106, 65
67) COCc1cc(C)nc(OCC(=O)N/N=C/c2ccccc2)c1C#N
  i, 0.95, ., -6, -36, 138, 100
68) Cc1cc(-c2cccnc2)c(C#N)c(SCC#N)n1
  i, 0.89, -1.7, -4, 59, 67, 93
69) CCOC(=O)c1ccc(NC(=O)Cn2cc3c(n2)CCC(C)C3)cc1 (configuration not stated)
  i, 1.3, -2.9, -14, ., ., 102
70) CN1CCN(S(=O)(=O)c2cccc(C(=O)NCc3ccccc3Cl)c2)CC1
  i, 0.88, ., -8, -45, 103, 97
71) CCOC(=O)c1snc(-c2ccc(F)cc2)c1N
  i, 0.97, -2.3, -7, -12, 102, 97
72) CCCOc1ccccc1N/C(=N/c1nc(C)cc(C)n1)NC(=O)Nc1ccc(Cl)cc1
  i, 1, -0.6, 3, 27, 72, 62
73) O=S(=O)(c1cccc(-c2csc(-c3cccnc3)n2)c1)N1CCOCC1
  i, 0.93, ., ., ., ., 102
74) NS(=O)(=O)c1ccc(NC(=S)NC(=O)/C=C/c2cccs2)cc1
  i, 0.76, ., -5, ., ., 102
75) COc1ccc(/C=C2/SC(=O)N(CCNC(=O)CC(NC(C)=O)c3ccccc3)C2=O)cc1 (configuration not stated)
  i, 1.1, ., ., ., ., 104

Other records:
Values run as follows: HSV augment, HSV augment primary fold, GALR2 ag, PKD1 inh, Insulin prom inh, Insulin prom inh cell count, RGS16-Gao
76) O=C1CN(C(=O)c2ccc(Cl)nc2)c2ccccc2N1
  i, 1, ., 2, ., ., 96
77) CCC(O)C1CCN(Cc2cn(-c3ccc(OC)cc3)nc2-c2cccc(F)c2)CC1 (configuration not stated)
  i, 0.77, ., -3, ., ., 98
78) CN1CCCC(OC(=O)c2ccc3c(c2)OCCO3)C1 (configuration not stated)
  i, 0.93, -1.9, 6, 32, 85, 121
79) CCCCn1c(-c2csc(CCC)c2)n[nH]c1=S
  i, 1, ., -1, -27, 89, 98
80) Cc1cc2cc(C)c3nnc(SCC(=O)Nc4ccc(S(=O)(=O)N5CCCCC5C)cc4)n3c2cc1C (configuration not stated)
  i, 0.85, -2.2, 1, 24, 142, 97
81) Cc1nn(C)c(-c2n[nH]c(=S)n2-c2ccccc2)c1Cl
  i, 0.93, -1.0, -13, 38, 69, 117
82) Cc1cc(C)n(-c2nnc(C)n2/N=C/c2ccccc2O)n1
  ., ., -2.7, -5, -5, 55, 98
